gsp agonist = gsp mutant agonism. gsp mutant cells, cAMP HTRF, 30 min; control for the full effect not named in the record. Potency, µM (highest dose often 76.9 µM), for the others: top-dose activation (cAMP increase), actives largely listed as activators. 340,000 compounds, 0.13% hits; active = well fitted activation curve with a large enough effect; inconclusive = small, poorly fitted or top-dose-only effect, or another doubt; inactive = no such curve, though single readings can be large or run the other way; cell line not stated here;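 note: phosphodiesterase inhibitor Ro 20-1724 added with compounds to block cAMP breakdown; potency is the fitted concentration of half-maximal effect; nearly all actives have a fitted effect of over 60% in size; about a fifth of the inactives were tested at one dose only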
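Cells stably selected in G418 were plated at 2000/well, grown 16-24 hr, then given compounds in DMSO with the PDE inhibitor […] (300 uM solution added) for 30 min at 37C; cAMP was read by HTRF.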
gsp antag = gsp mutant antagonism; Potency, µM (titrated, usually from 76.9 µM), for the others: at the highest dose activity change, negative = inhibition, usual class: inhibitors; 340,000 compounds, 0.4% hits; gsp-mutant cells, cAMP HTRF, 30 min; control for the full effect not named in the record; active = falling curve of any shape with a large fitted effect; inconclusive = falling curve, mostly with a smaller effect; inactive = flat or rising curve; cell line not stated here;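 note: intracellular cAMP measured with PDE inhibitor Ro 20-1724 present during compound exposure; potency is the fitted concentration of half-maximal effect; % is set by controls: 0 for no effect and ±100 for the full control effect; nearly all actives have a fitted effect of over 65% in size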
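Cells, 2000/well, grown 16–24 h in DMEM 10% FBS with 0.5 mg/ml G418, then compounds plus […] (300 uM addition stock), 30 min at 37C. cAMP read by HTRF (cAMP-d2 and anti-cAMP antibody-K in lysis buffer) after 30 min RT.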
CtBP-E1A blk = blocks the CtBP interaction with E1A; AlphaScreen GST-E1A/His-CtBP binding, 1536-well; stronger effect = lower value; control for the full effect not named in the record; activity change, % (no concentration beside the values); 340,000 compounds, 0.49% hits; AID 651724; in the data active means activity change below about -65%; inconclusive means about -30% to -65%; inactive means above about -30%; note: % is set by controls: 0 for no effect and ±100 for the full control effect
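Homogeneous bead-based format: GST-tagged E1A captured on glutathione donor beads, His-tagged CtBP on nickel acceptor beads; compounds precede bead addition by 2 h at 37 °C.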
D2 potentiator = potentiates the human D2 dopamine receptor allosterically; P14416; DiscoveRx D2 beta-arrestin cells, luminescence, 90 min; 100% = 57 uM dopamine signal; potentiation, % (no concentration beside the values); 360,000 compounds, 0.23% hits; AID 624464; active = potentiation of 50% or more; inconclusive = 30% to 50%; inactive = 30% or less;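 note: compound concentration not given in the record; tested on top of an EC20 dose of dopamine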
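PathHunter beta-arrestin assay in DiscoveRx D2 cells. Compounds were added with an EC20 of dopamine (50 nM final) for 90 min at 37 deg C. Luminescence was read 1 h after detection reagent, with 57 uM dopamine as the EC100 control.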
D2 ag = human D2 receptor agonism in beta-arrestin assay; AID 624465; DiscoveRx PathHunter D2 beta-arrestin, luminescence, 90 min; 100% = 57 uM dopamine signal; P14416; 360,000 compounds, 0.084% hits; activation, % (no concentration beside the values); in the data active = activation above about 40%; inconclusive = about 15% to 40%; inactive = below about 15%; note: compound concentration not given in the record; the text of the record calls up to 30% inactive
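Agonist mode: compounds alone added to overnight-plated D2 PathHunter cells for 90 min at 37 C, with 57 uM final dopamine (EC100) defining full response. Beta-arrestin recruitment detected by chemiluminescent reagent, read after 1 h at ambient temperature.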
Six1-Eya2 blk = Six1/Eya2 interaction inhibition; Q15475+O00167; AID 651725; 360,000 compounds, 0.56% hits; AlphaScreen GST-Six1/His-Eya2 binding, biochemical; stronger effect = lower value; control for the full effect not named in the record; activity change, % (concentration not given with the values); in the data active = activity change below about -65%; inconclusive = about -30% to -65%; inactive = above about -30%; note: % is set by controls: 0 for no effect and ±100 for the full control effect
Target sequence (O00167 whole entry, looked up): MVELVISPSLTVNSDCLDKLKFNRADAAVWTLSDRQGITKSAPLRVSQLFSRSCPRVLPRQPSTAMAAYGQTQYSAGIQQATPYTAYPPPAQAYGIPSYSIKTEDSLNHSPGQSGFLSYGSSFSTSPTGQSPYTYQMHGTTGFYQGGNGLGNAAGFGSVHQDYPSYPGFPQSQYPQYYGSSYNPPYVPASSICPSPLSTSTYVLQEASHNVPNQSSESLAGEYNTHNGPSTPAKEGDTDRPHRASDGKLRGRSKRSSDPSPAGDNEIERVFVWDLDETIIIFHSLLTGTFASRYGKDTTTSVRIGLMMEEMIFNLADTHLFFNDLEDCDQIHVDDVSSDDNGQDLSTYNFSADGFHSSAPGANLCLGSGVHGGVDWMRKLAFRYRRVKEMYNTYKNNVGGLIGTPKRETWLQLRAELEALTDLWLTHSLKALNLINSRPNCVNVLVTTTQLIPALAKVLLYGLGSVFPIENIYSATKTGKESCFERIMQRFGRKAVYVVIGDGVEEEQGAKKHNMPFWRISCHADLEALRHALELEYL
Target sequence (Q15475 whole entry, looked up): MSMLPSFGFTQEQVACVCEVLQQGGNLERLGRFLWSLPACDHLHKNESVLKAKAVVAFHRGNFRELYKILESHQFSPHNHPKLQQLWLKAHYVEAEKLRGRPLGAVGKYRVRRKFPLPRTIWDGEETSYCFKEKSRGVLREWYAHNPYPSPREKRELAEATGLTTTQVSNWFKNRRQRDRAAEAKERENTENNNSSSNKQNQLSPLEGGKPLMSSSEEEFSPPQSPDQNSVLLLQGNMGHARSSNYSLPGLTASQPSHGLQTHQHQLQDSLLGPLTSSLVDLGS
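GST-Six1 + His-Eya2 (5X stock: 250/500 nM); Tris pH 8.0, 300 mM NaCl, 0.05% BSA, 0.02% Tween 20; GSH donor/Ni acceptor beads; 1 h 37 °C dark; AlphaScreen readout.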
* hit, by the source's call; u = inconclusive; x = not tested or not shown; [ ] = another dose, or the depositor's remark.

The opening 9 records, to show the layout:
SMILES | gsp agonist | gsp antag | CtBP-E1A blk | D2 potentiator | D2 ag | Six1-Eya2 blk
COc1ccc(C=O)cc1Oc1nc(Cl)ncc1F | -21%[15.4 µM] | -12% | 3 | 2 | -2.3 | 5
COc1ccc(OC)c(NC(=O)Cn2c(CCC(=O)O)ccc2-c2ccccc2)c1 | 15% | -11% | -2 | -10 | -1.4 | -2
CCOC(=O)c1c(NC(C)=O)sc2c(O)c(Br)ccc12 | -51%[inhibitor] | -7% | -9 | -7 | -3.7 | -4
O=C(NCCc1c[nH]c2ccccc12)C(=O)NCC1OCCCN1S(=O)(=O)c1cccs1 (stereo not drawn) | -20% | -8% | -1 | -5 | -0.6 | -5
COC(=O)C1CSc2[nH]c(=O)sc2C1c1ccccc1 (stereo not drawn) | 15% | 1% | -2 | -6 | -2.8 | 0
CCCCN1CC2=C(C1=O)C(c1ccc(O)cc1)NC(=O)N2C (stereo not drawn) | 13%[15.4 µM] | 9% | -1 | 1 | -3.7 | -2
Cc1cccc(CS(=O)(=O)Cc2ccc(C(=O)NC(C)c3ccccc3)o2)c1 (stereo not drawn) | -19% | -13% | 2 | -4 | 4.7 | 0
N#CCc1nc(CSc2nc3ccccc3s2)cs1 | -41%[inhibitor] | -7% | 6 | 4 | -1.6 | 10
Cc1cccc(C(=O)OCc2cc(=O)oc3c(C)c(C)ccc23)c1O | -3%[15.4 µM] | 2% | 3 | -9 | -5.7 | 6

The whole of this part, previewed entries included:
SMILES | gsp agonist | gsp antag | CtBP-E1A blk | D2 potentiator | D2 ag | Six1-Eya2 blk
COc1ccc(C=O)cc1Oc1nc(Cl)ncc1F | -21%[15.4 µM] | -12% | 3 | 2 | -2.3 | 5
COc1ccc(OC)c(NC(=O)Cn2c(CCC(=O)O)ccc2-c2ccccc2)c1 | 15% | -11% | -2 | -10 | -1.4 | -2
CCOC(=O)c1c(NC(C)=O)sc2c(O)c(Br)ccc12 | -51%[inhibitor] | -7% | -9 | -7 | -3.7 | -4
O=C(NCCc1c[nH]c2ccccc12)C(=O)NCC1OCCCN1S(=O)(=O)c1cccs1 (stereo not drawn) | -20% | -8% | -1 | -5 | -0.6 | -5
COC(=O)C1CSc2[nH]c(=O)sc2C1c1ccccc1 (stereo not drawn) | 15% | 1% | -2 | -6 | -2.8 | 0
CCCCN1CC2=C(C1=O)C(c1ccc(O)cc1)NC(=O)N2C (stereo not drawn) | 13%[15.4 µM] | 9% | -1 | 1 | -3.7 | -2
Cc1cccc(CS(=O)(=O)Cc2ccc(C(=O)NC(C)c3ccccc3)o2)c1 (stereo not drawn) | -19% | -13% | 2 | -4 | 4.7 | 0
N#CCc1nc(CSc2nc3ccccc3s2)cs1 | -41%[inhibitor] | -7% | 6 | 4 | -1.6 | 10
Cc1cccc(C(=O)OCc2cc(=O)oc3c(C)c(C)ccc23)c1O | -3%[15.4 µM] | 2% | 3 | -9 | -5.7 | 6
Cc1ccc(S(=O)(=O)CCN2CCN(c3ccccn3)CC2)cc1 | -16%[15.4 µM] | 5% | 6 | -12 | 1.0 | 3
CCOc1ccc(C2NC(=O)c3n[nH]c(C)c32)cc1 (stereo not drawn) | -37%[inhibitor] | -6% | -2 | -6 | -6.9 | 9
O=C(O)c1ccc(N2C(=O)CC(SC(=NCc3ccc4c(c3)OCO4)Nc3ccccc3)C2=O)cc1 (stereo not drawn) | -24% | -12% | x | 5 | 0.5 | 6
C#CCOC(=O)c1ccc(-n2cncn2)nc1 | -26% | -11% | 1 | -12 | 0.8 | 4
COC(=O)c1ccc2[nH]c(CO)c(-c3ccccc3)c2c1 | u | -5% | x | -5 | -1.9 | -3
O=C(Nc1ccc(F)cc1)NC1(C(=O)NCc2ccco2)CCCCC1 | 5% | -2% | -15 | -8 | 1.8 | -17
CC1(C)CC(=O)C2=C(C1)N(CC1CCCO1)C(=O)C2(O)C(F)(F)F (stereo not drawn) | -13% | 8% | 0 | -3 | -2.9 | 1
CCCCN1CC[C@H]2C=CC[C@@H](C(=O)N3CCOCC3)[C@H]2C1=O | x | 13% | 1 | -1 | -2.7 | 0
Cc1cccn2c(=O)c3cc(S(=O)(=O)c4ccc(F)cc4)c(=N)n(Cc4ccco4)c3nc12 | 0% | -13% | -11 | -5 | -2.8 | u
Cc1ccccc1S(=O)(=O)Cc1ccc(C(=O)NCCN2CCCCC2C)o1 (stereo not drawn) | 12% | 1% | -1 | -24 | 0.6 | 8
O=C(CCNC(=O)c1ccco1)Nc1ccc(Cl)cc1 | 13%[15.4 µM] | x | 5 | -20 | -0.8 | -2
CCN1CCCC1CNC(=O)c1ccc2c(c1)N(Cc1cccc(Cl)c1)C(=O)c1ccccc1S2(=O)=O (stereo not drawn) | -26% | 7% | -6 | -32 | -2.3 | -7
CCOC(=O)CNC(=O)N1CCCC(C(=O)c2cccc(Cl)c2)C1 (stereo not drawn) | u | -1% | x | -1 | -1.3 | 1
CC1(C)C2CC[C@]3(C)C(CC=C4[C@@H]5C[C@@](C)(CO)[C@@H](O)C[C@]56C[C@@H](OC6=O)[C@]43C)[C@@]2(C)CC[C@@H]1O (stereo partly drawn) | x | 1% | 3 | -29 | -6.4 | 11
CCN(CCNC(=O)CCCn1nc(C)n2c(cc3sccc32)c1=O)c1ccccc1 | -47%[inhibitor] | 10% | -5 | -3 | -4.7 | -20
Cc1cccc(C(=O)OC(C)CN2CCOCC2)c1 (stereo not drawn) | -3%[15.4 µM] | 15% | 16 | -12 | -0.9 | -12
Cc1cc(C(=O)CN2C(=O)NC3(CCC(C)CC3)C2=O)c(C)n1C (stereo not drawn) | -7%[15.4 µM] | 11% | 2 | -1 | 1.1 | 0
CSc1ncccc1C(=O)N1CCCC(C(=O)c2ccc3ccccc3c2)C1 (stereo not drawn) | 22% | u | 5 | -2 | -1.3 | -1
Cc1ccc(NC(=O)CSCC(=O)N2CCN(Cc3ccc4c(c3)OCO4)CC2)cc1 | -17% | 6% | 0 | -8 | -0.4 | -3
Cc1cc(C)cc(N(CC(=O)NC2CCCCC2)C(=O)c2ccc(C)s2)c1 | 9% | -6% | 11 | -4 | 3.5 | -2
O=C(Nc1cccc(Cl)c1)c1cc(S(=O)(=O)N2CCOCC2)cs1 | -63%[inhibitor] | -14% | -2 | -20 | 1.1 | -7
O=C(Nc1nc(-c2cc(F)ccc2F)cs1)c1ccccn1 | -1%[15.4 µM] | -17% | -6 | -3 | 2.4 | -15
COc1cc(OC)cc(C(=O)NCC(=O)NCc2ccccn2)c1 | -30%[inhibitor] | 11% | 7 | -4 | -2.1 | 2
COc1ccccc1CC(=O)NC1CCN(Cc2ccccc2)CC1 | u | 3% | 1 | -13 | -4.3 | 5
COc1ccccc1NC(=O)Cn1nnc(-c2ccccc2NC(=O)c2cccs2)n1 | -4% | -19% | 5 | u | -1.2 | 1
O=C(Cc1c[nH]c2ccccc12)NC1(C(=O)NC2CCCCC2)CCCCC1 | -26% | 7% | -7 | -21 | -0.1 | 5
COc1nc(N)c(C#N)c(-c2ccc(N(C)CCC#N)cc2)c1C#N | u | 2% | x | 5 | u | -22
CCOc1ccc(N2C(=O)CC(NCCc3ccc(S(N)(=O)=O)cc3)C2=O)cc1 (stereo not drawn) | 0% | 4% | 0 | -5 | -2.6 | -6
O=C(NCc1ccc2c(c1)OCO2)c1ccc(-n2cnnn2)cc1 | 9% | 9% | -1 | -10 | -1.5 | 0
Clc1ccccc1OCCNc1nc(NCC2CC2)nc2ccsc12 | x | x | 1 | -23 | 2.7 | -2
Cn1c(N)c(Sc2ccccc2[N+](=O)[O-])c(=O)n(C)c1=O | 4% | 7% | -18 | 1 | 1.0 | 6
CCOC(=O)c1[nH]c2ccccc2c1NC(=O)C1CCCCC1 | u | 1% | 0 | -9 | -4.3 | 6
CC(=O)c1cn(CC(=O)Nc2ccc(C)c(C)c2)c2ccccc12 | -4% | 1% | 9 | -4 | -0.3 | 3
O=C(c1ccco1)N1CCN(C(=O)C(c2ccccc2)c2ccccc2)CC1 | -12% | -14% | 1 | 1 | 1.1 | -5
Cc1ccc(Sc2c(C(=O)Nc3ccc(F)cc3F)c(C(F)(F)F)nn2C)cc1 | -55%[inhibitor] | -9% | 29 | -10 | -1.8 | 21
COc1ccc(CCN2CC(C(=O)NCCCn3nc(C)cc3C)CCC2=O)cc1 (stereo not drawn) | 10% | 8% | -17 | -6 | 1.9 | 4
COc1ccc(CCN2C(=O)c3ccccc3C2(O)c2ncc[nH]2)cc1OC (stereo not drawn) | u | 9% | 4 | -7 | -4.5 | 1
Cc1ccc(C)c(NC(=O)c2ncn[nH]2)c1 | -9% | 4% | 2 | 2 | -1.7 | -5
CCOc1ccc(NC(=O)CSc2nnc(-c3ccccn3)n2C)cc1 | u | 6% | -5 | -1 | -0.1 | -2
CCOc1cc(C)nc(NCc2ccccc2)n1 | 3% | 8% | -4 | -7 | -0.4 | 14
O=C(NCC(=O)N1CCOCC1)c1ccccc1 | -3% | 5% | -3 | 0 | -1.7 | 0

(cont.)
SMILES | gsp agonist | gsp antag | CtBP-E1A blk | D2 potentiator | D2 ag | Six1-Eya2 blk
CCOC(=O)c1c(-c2ccc(OC)cc2)csc1NC(=O)COc1ccc2c(C)cc(=O)oc2c1 | -12% | 9% | -15 | -11 | -6.1 | -1
O=C1CC(c2ccco2)CC(O)=C1C=NCCN1CCN(C2CC(=O)N(c3ccccc3)C2=O)CC1 (stereo not drawn) | 4% | 2% | 6 | -1 | 0.6 | 3
Cc1ccccc1NC(=S)N(C)Cc1cccs1 | 6% | 1% | 9 | 5 | -3.3 | 2
S=C(c1ccc(N2CCOCC2)cc1)N1CCCCC1 | -5% | 3% | 3 | -4 | -3.7 | 1
O=C(OCc1cn([C@@H]2C[C@H](c3ccc(Cl)cc3)N(CC3CCCCC3)C[C@H]2O)nn1)c1ccccc1 | -13% | x | 0 | -3 | 1.9 | 10
CCN(CC)C(=O)c1cccc(-c2csc(C(O)c3ccc(F)c(OC)c3)n2)c1 (stereo not drawn) | x | x | -1 | -9 | 3.9 | 1
O=C(NC1=NCCS1)c1cc(-c2ccccc2)nn1-c1ccccc1 | -33%[inhibitor] | 10% | 4 | -7 | -0.4 | 3
COc1ccccc1-n1cc(C(=O)NCC(=O)N2CCN(Cc3ccccc3)CC2)c2ccccc2c1=O | -1%[15.4 µM] | -1% | -2 | -5 | 0.4 | 0
COc1cccc2cc(/C(=N/O)c3ccc(Br)cc3)oc12 | -85%[inhibitor] | -16% | x | -7 | -0.2 | -1
O=C(NCc1cccnc1)C1CCN(S(=O)(=O)c2cccs2)CC1 | u | 13% | 3 | -8 | 0.3 | 3
